Bioassay records deposited in PubChem BioAssay by National Center for Advancing Translational Sciences (NCATS).
NS1 inh = qHTS Assay for Inhibitors of Influenza NS1 Protein Function. S. cerevisiae slowed by influenza A NS1, growth recovery by OD600. 270,000 tested, 0.4% active. AID 2326, 2010. Potency, µM (doses to about 46.1 µM), without a hit: at the highest dose activity, positive = more growth; note: actives are rising curves; nearly all actives have a fitted effect of over 50% in size
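OD600 was taken as the measure of yeast growth restored by compound in an NS1-expressing S. cerevisiae strain. Cells had been washed out of glucose medium and diluted 1:100 into galactose -URA medium, pH 6.0.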
StopGo reporter = High Throughput Screening for Foot and Mouth Disease Virus Antivirals. human cells with a luciferase reporter of 2A StopGo recoding; control for the full effect not named in the record. Potency, µM (titrated, usually from 57.9 µM), for the others: at the top dose signal change, negative = less light. 410,000 tested, 1.2% active; active = well fitted falling curve with a large enough effect; inconclusive = small, poorly fitted or top-dose-only effect; inactive = no such curve, though single readings can be large or run the other way; tested in HEK293T cells; note: % is set by controls: 0 for no effect and ±100 for the full control effect; nearly all actives have a fitted effect of over 45% in size; luciferase light after 4 h
Cruzain Triton = qHTS Assay for Promiscuous and Specific Inhibitors of Cruzain (with detergent); Cruzipain (Trypanosoma cruzi), P25779; purified cruzain, Z-FR-AMC fluorescence, 0.01% Triton; Potency, µM, without a hit: max response, negative = inhibition, actives largely listed as inhibitors; 200,000 tested, 0.43% active; active = well fitted curve in the direction sought with a large enough effect; inconclusive = small, poorly fitted or top-dose-only effect, or another doubt; inactive = no such curve, though single readings can be large; an effect the other way counts as inactive or inconclusive;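 note: plate controls were neutral wells for no effect and buffer without enzyme for full effect; nearly all actives have a fitted effect of over 40% in size; top concentration of the series not given in the record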
Target sequence (P25779 123-467 limits assumed): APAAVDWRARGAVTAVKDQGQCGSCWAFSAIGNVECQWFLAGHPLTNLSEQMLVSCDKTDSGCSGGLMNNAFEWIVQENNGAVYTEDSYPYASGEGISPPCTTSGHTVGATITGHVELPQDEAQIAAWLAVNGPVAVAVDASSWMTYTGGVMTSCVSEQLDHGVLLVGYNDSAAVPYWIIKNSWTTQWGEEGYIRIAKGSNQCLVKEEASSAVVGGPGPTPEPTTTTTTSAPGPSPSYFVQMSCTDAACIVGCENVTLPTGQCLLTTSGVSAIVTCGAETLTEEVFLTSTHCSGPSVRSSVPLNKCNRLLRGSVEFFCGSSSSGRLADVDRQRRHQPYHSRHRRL
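In this qHTS format, compounds are incubated with 1.5 nM cruzain for 15 min at room temperature before 2 uM Z-FR-AMC is added. Release of AMC is followed at 360/450 nm, and progress is taken as the 60 s fluorescence difference.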
Cruzain noTriton = qHTS Assay for Promiscuous and Specific Inhibitors of Cruzain (without detergent); Cruzipain (Trypanosoma cruzi), P25779; 200,000 tested, 2.3% active; purified cruzain, Z-FR-AMC fluorescence, no detergent; Potency, µM, inactives show max response, negative = inhibition, usual class: inhibitors; active = well fitted curve in the direction sought with a large enough effect; inconclusive = small, poorly fitted or top-dose-only effect, or another doubt; inactive = no such curve, though single readings can be large; an effect the other way counts as inactive or inconclusive;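 note: plate controls were enzyme without inhibitor for no effect and buffer without enzyme for full effect; nearly all actives have a fitted effect of over 40% in size; top concentration of the series not given in the record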
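Detergent-free condition (0.00005% Triton X-100) in acetate buffer pH 5.5 with DTT. 1.5 nM enzyme and compound were pre-mixed 15 min, then 2 uM Z-FR-AMC substrate added; reaction progress from fluorescence change between first and third reads (60 s).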
SARS PLpro yeast = qHTS of Yeast-based Assay for SARS-CoV PLP; S. cerevisiae expressing SARS-CoV PLpro, growth rescue; control for the full effect not named in the record; Potency, µM (doses to about 32.9 µM), for inactives: at the highest dose activity, positive = growth rescue; 330,000 tested, 0.19% active; AID 485353, 2010; note: 0% is about no effect; nearly all actives have a fitted effect of over 55% in size; growth read by luminescence after 48 h
RE007 growth inh = qHTS Assay for Inhibitors of the HIV-1 protein Vpr; S. pombe RE007 Vpr strain, BacTiter-Glo ATP luminescence, 24 h; control for the full effect not named in the record; Potency, µM (top dose mostly 92.2 µM), for the others: at the highest dose activity change, negative = less growth; 360,000 tested, 0.21% active; AID 651644, 2012; active = well fitted falling curve with a large enough effect; inconclusive = small, poorly fitted or top-dose-only effect; inactive = no such curve, though single readings can be large or run the other way;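 note: % is set by controls: 0 for no effect and ±100 for the full control effect; nearly all actives have a fitted effect of over 50% in size; the assay follows cell death caused by Vpr and the record does not say whether a fall means rescue or toxicity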
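Fission yeast RE007 carrying one integrated HIV-1 vpr copy, seeded at OD 0.01 in PMG+AL medium with 23 nL pinned compound. Grown 24 h at 30 degrees; viability read by BacTiter-Glo luminescence after 5 min.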
Lassa entry inh = qHTS for Inhibitors of binding or entry into cells for Lassa Virus | Lassa virus pseudotype entry inhibition, cell reporter; control for the full effect not named in the record | Potency, µM (titrated, usually from 37.9 µM), inactives show top-dose activity change, negative = inhibition, most hits filed as inhibitors | 300,000 tested, 1.2% active; active means well fitted inhibition curve with a large enough effect; inconclusive means small, poorly fitted or top-dose-only effect, or effect the other way; inactive means flat fitted curve, though single readings scatter; tested in HEK293 cells; note: % is set by controls: 0 for no effect and ±100 for the full control effect; nearly all actives have a fitted effect of over 50% in size; luciferase read-out
Marburg entry inh = qHTS for inhibitors of binding or entry into cells for Marburg Virus | Marburg virus pseudotyped entry inhibition, cell reporter; control for the full effect not named in the record; about a third of the inactives were read at about 46 µM | Potency, µM (series often up to 37.8 µM), for inactives: at the top dose activity change, negative = inhibition, most hits filed as inhibitors | 300,000 tested, 1.8% active | AID 540276, 2011; active = well fitted inhibition curve with a large enough effect; inconclusive = small, poorly fitted or top-dose-only effect, or effect the other way; inactive = flat fitted curve, though single readings scatter; tested in HEK293 cells; about a fifth of its hits are not listed in these tables; note: % is set by controls: 0 for no effect and ±100 for the full control effect; luciferase read-out
An asterisk follows results filed as active; ? = inconclusive; nt = no result given; & = joins results of further samples; [ ] = another dose, or the depositor's remark. Unless noted, calls come from the whole dose curve; as a rule, active means well fitted rising curve with a large enough effect; inconclusive means small, poorly fitted or top-dose-only effect; inactive means no such curve, though single readings can be large or run the other way. Potency is the fitted concentration of half-maximal effect. An unsorted share of the library; overall some 4.7% were active at least once.

molecule	NS1 inh	StopGo reporter	Cruzain Triton	Cruzain noTriton	SARS PLpro yeast	RE007 growth inh	Lassa entry inh	Marburg entry inh
Cc1ccccc1N(CC(=O)NCCSc1ccccn1)S(=O)(=O)c1ccccc1	-5%	-2%	nt	nt	1%	1%	5%	-24%[46.1 µM]
C=CCOc1ccc(/C=C/C(=O)OCC(=O)NCc2cccs2)cc1	nt	46%[activator]	nt	nt	-4%	6%	-2%	18%
c1ccc(-n2nnnc2SCc2cccc(CSc3nnnn3-c3ccccc3)n2)cc1	12%	-27%	-1.2%	7%	-12%	-21%	-19%	?
COc1ccc(/C=N/NC(=O)c2cc(-c3ccccc3)nc3ccccc23)cc1O	13%	-13%	nt	nt	-1%	31%	-23%[46.1 µM]	13µM*
CCOc1ccc(CCNC(=O)CN(C)S(=O)(=O)c2ccc3c(c2)CCC(=O)N3)cc1OCC	-23%	0%	2.5%	?	1%	-7%	14%	-24%&-24%
Cc1csc(C(C)N(C)C(=O)c2ccc(OC3CCN(Cc4ccccn4)CC3)cc2)n1 (stereo unspecified)	-2%	?	nt	nt	9%	-4%	-11%	8%
Fc1ccc(CNc2nc3ccccc3n3cnnc23)cc1	-7%	-15%	1.0%	-23%	-2%	8%	nt	nt
CC(=O)N1CCN(C(=O)COc2ccc(N(C)S(=O)(=O)c3cccs3)cc2)CC1	nt	-10%	nt	nt	4%	-5%	1%	-8%
O=C(Cn1cc([N+](=O)[O-])cn1)Nc1ccc(Cn2cc(Br)cn2)cc1	4%	-25%	-6.0%	12%	3%	nt	3%	?
CC1CCc2c(C(=O)OCC(=O)Nc3cccc(S(=O)(=O)N4CCCCCC4)c3)csc2C1 (stereo unspecified)	26%	-13%	-0.5%	?	-27%	1%	15%	?
COc1cc(NC(=O)CSc2cc(=O)n(C)c3ccccc23)cc(OC)c1OC	nt	-25%	0.2%	-11%	nt	nt	12%[46.1 µM]	?
COc1ccc(C2C(C#N)=C(N)N(c3sc4c(c3C#N)CCCC4)C3=C2C(=O)CC(C)(C)C3)cc1OC (stereo unspecified)	8%	0%	-5.2%	-3%	3%	-6%	?	?
COC(=O)/C=c1/s/c(=C(/C#N)C(=O)N2CCOCC2)n(-c2ccccc2)c1=O	7%	?	0.4%	6%	-2%	-6%	-7%	-9%
CCCCCCC1CC(CSC(=N)N)OC1=O (stereo unspecified)	5%	-7%	3.0%	3%	-2%	18%	-25%	0%
COc1ccc(C(=O)N2CC(=O)Nc3ccc(C)cc3C2c2ccccc2)c(OC)c1 (stereo unspecified)	nt	9%	-1.9%	5%	nt	nt	-15%[46.1 µM]	0%[46.1 µM]
Cc1ccc(-n2c(SCC(=O)Nc3cccc(Cl)c3)nc3n[nH]c(C)c3c2=N)cc1	nt	-29%	-0.9%	-5%	nt	nt	-20%[46.1 µM]	nt
C/C(N)=C(/C#N)C(=O)COC(=O)c1cc2c(s1)CCC(C)C2 (stereo unspecified)	nt	55%[activator]	nt	nt	-1%	21%	12%	2%[46.1 µM]
Nc1nc(CC(=O)CSc2ccc(Cl)cc2)nc(Nc2ccc(F)cc2)n1	4%	nt	2.9%	?	11%	nt	nt	4%
CCC1(CC)NC(=O)N(CC(=O)OCC(=O)Nc2ccc(F)c(F)c2F)C1=O	nt	-1%	nt	nt	-5%	5%	?	-3%
O=[N+]([O-])c1ccc(Sc2nc3ccccc3o2)c([N+](=O)[O-])c1	-161%	35µM*	-4.4%	-15%	-37%	?	-27%[14.3 µM]	16µM*
O=C(COC(=O)CNC(=O)c1ccccc1)Nc1cccc(Br)c1	-28%	-17%	?	-15%	0%	-7%	1%	-12%
COc1ccccc1NC(=O)c1c(Nc2ccccc2C)sc(C(=O)Nc2cccc(Cl)c2)c1N	?	7.9µM*	1.6%	3.2µM*	-15%	6%	?	?
O=C(Oc1cccnc1)c1ccc(Cl)cc1	-60%	-7%	-2.7%	1%	-2%	-4%[3.69 µM]	0%	-2%
COc1cccc(-c2nnn(CC(C)=O)n2)c1	4%	33%[activator]	-2.2%	3%	0%	-2%	12%	13%[46.1 µM]
NC(=O)c1sc(=S)n(-c2ccc(Br)cc2)c1N	-19%	-7%	-3.1%	-10%	5%	-11%	nt	nt
O=C(CN(Cc1ccc2c(c1)OCO2)C(=O)CNS(=O)(=O)c1ccccc1)NCC1CCCO1 (stereo unspecified)	-4%	-18%	-2.0%	-2%	1%	4%	0%	5%&5%
CC(/C=C/c1ccc2c(c1)OCO2)=N\NC(=O)c1ccccc1	nt	50%[activator]	nt	nt	-7%	-10%	nt	8%[46.1 µM]
CC1CN(S(=O)(=O)c2cc(C(=O)NC(C)c3cccnc3)ccc2Cl)CC(C)O1 (stereo unspecified)	nt	-27%	nt	nt	-4%	1%	3%	-21%
CS(=O)(=O)N(CC(=O)Nc1ccccc1C(=O)N1CCOCC1)c1ccccc1	1%	-20%	-0.1%	1%	2%	3%	2%	3%
COc1ccc(NS(=O)(=O)c2cccc(-c3nnc(-c4ccccc4)o3)c2)cc1	-21%	42%[activator]	-7.0%	-1%	-12%	-16%	0%	-8%
CCC1(C)OC(=O)N2CCc3c(C)[nH]c4c(C)ccc(c34)C21C (stereo unspecified)	?	-20%	-1.5%	3%	-7%	3%	nt	nt
CCCc1nnc(NC(=O)c2ccc(S(=O)(=O)N(C)c3ccccc3OC)cc2)s1	nt	?	nt	nt	-4%	9%	-6%	0%
CCOC(=O)N1CCC(N2CC34C=CC(O3)C(C(=O)Nc3ccc(C(C)C)cc3)C4C2=O)CC1 (stereo unspecified)	-3%	-6%	2.9%	28%	-6%	18%	nt	4%
Nc1nc(SCC(=O)N2CCc3ccccc3C2)[nH]c(=O)c1-c1ccccc1	8%	nt	-2.0%	-25%	3%	8%	17%	6%
CCCC1=[N+](CC(C)=O)CCn2c(C)ccc21	nt	-5%	nt	nt	2%	-2%	-19%	-4%
Cc1ccc(OCC(=O)NCCCNC(=O)c2ccc(C)nc2)cc1	-8%	8%	nt	nt	-3%	1%	20%	3%[46.1 µM]
CC1CCN(CCNC(=O)c2ccc(Cn3c(SCc4ccccc4)nc4cccnc43)cc2)CC1	nt	14%	-12%	-12%	nt	nt	nt	?
COCCn1c(C)nnc1SCC(=O)NNC(=O)c1ccc(Cl)cc1	0%	-4%	nt	nt	-2%	5%	23%[46.1 µM]	-5%[46.1 µM]
COc1ccc(Cl)cc1NC(=O)c1ccc2nc(Cc3ccccc3)oc2c1	nt	-20%	-5.5%	-11%	nt	nt	-1%[46.1 µM]	nt
Cc1ccc2c(c1)=C/C(=C\c1c(O)[nH]c(=O)[nH]c1=O)C(=O)N=2	0%	?	-5.4%	6%	9%	-4%	14%	1%
CCOC(=O)N1CCN(C(=O)CCCn2c(=S)[nH]c3ccccc3c2=O)CC1	-8%	-6%	0.7%	-13%	nt	-23%	-2%	11%
Cc1ccc2[nH]c3c(=O)n(CC(=O)NCc4ccco4)ncc3c2c1	?	10%&-8%	-1.1%	?	?	-5%	11%[46.1 µM]	nt
COc1ccccc1N(CC(O)Cn1nc(C)cc1C)S(=O)(=O)c1ccccc1 (stereo unspecified)	nt	2%	nt	nt	-1%	-7%	1%	1%[46.1 µM]
Cc1cc(S(=O)(=O)NCc2ccco2)c(C)s1	5%	77%[activator]	-3.0%	-1%	1%	3%	15%	-2%
CCOC(=O)CSc1nc(-c2cccs2)nc2c1c(=O)n(C)c(=O)n2C	-8%	-13%	nt	nt	-3%	12%	nt	nt
O=[N+]([O-])c1ccc(O)c(C2CCCCC2)c1	nt	?	nt	nt	nt	-28%	?	?
CCn1c(SCC(=O)Nc2nonc2C)nnc1-c1ccoc1C	-2%	-22%	0.1%	6%	0%	14%	1%	8%
COc1cccc(CN2C(=O)C3(SCC(=O)N3c3cc(C)cc(C)c3)c3ccccc32)c1 (stereo unspecified)	nt	-30%	-7.6%	-20%	nt	nt	?	nt
COc1ccccc1CCC(=O)N(Cc1ccccc1)c1c(N)n(Cc2ccccc2)c(=O)[nH]c1=O	0%	-29%	nt	nt	-9%	12%	?	-24%
CC(=Nc1ccccc1)c1sc2ccccc2c1O	-16%	-23%	-3.0%	-15%	-24%	?	?	?
CCCn1c(NC(=O)CCS(=O)(=O)c2ccc(C)cc2)nc2ccccc21	nt	-19%	nt	nt	nt	10%	-3%	-25%
CC(C)C(NC(=O)c1ccccc1NC(=O)c1ccco1)C(=O)NNC(=O)c1ccncc1 (stereo unspecified)	2%	3%	nt	nt	1%	3%	-9%	14%
CCN(CC)S(=O)(=O)c1ccc2oc(SCC(=O)NC3CC3)nc2c1	5%	-14%	nt	nt	-4%	0%	-2%	5%
CCN(CC)C(=O)CNC(=O)c1nn(-c2ccc(OC)c(Cl)c2)c(=O)c2ccccc12	10%	-11%	nt	nt	-1%	6%	3%	?
O=C(NC1CCCC1)c1ccc(CS(=O)Cc2ccc(Cl)cc2)o1 (stereo unspecified)	3%	6%	nt	nt	7%	2%	nt	nt
CCOc1ccccc1OCCCC(=O)OCC(=O)Nc1cccc(Cl)c1	-28%	23%	-6.4%	1%	-3%	-11%	-3%	?
O=C(O)c1ccccc1C(=O)Nc1nc(-c2ccccc2)cs1	14%	10%	nt	nt	-4%	6%	nt	nt
CCC(=O)N1CCN(c2ccc(NC(=O)COc3cccc(C)c3C)cc2)CC1	-11%	-27%	nt	nt	-11%	-9%	?	-6%[46.1 µM]
COc1cc(/C=N/O)ccc1OCc1ccccc1Cl	-1%	28%	nt	nt	-2%	25%	?	?
O=C(Cc1ccc(S(=O)(=O)N2CCOCC2)s1)NCCOc1ccccc1	nt	6%	nt	nt	1%	-19%	2%	23%
